# Compound activity as filed in PubChem.
# Beta2AR agonist: human beta-2 adrenergic receptor agonism by FAP; P07550; Am2.2-beta2AR cells, FAP receptor internalization, flow cytometry; reference of the scale not given here; response, % (concentration not given with the values); 340,000 tested, 0.43% active; AID 504454;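 active = response above a set limit, near 3 SD of response in nonfluorescent compounds, cut at about 42% in these data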;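 note: stock transfer was 100 nL into about 11 µL; a reference agonist was the positive control; negative values mostly stem from fluorescent compounds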
# Target sequence (P07550 whole entry, looked up): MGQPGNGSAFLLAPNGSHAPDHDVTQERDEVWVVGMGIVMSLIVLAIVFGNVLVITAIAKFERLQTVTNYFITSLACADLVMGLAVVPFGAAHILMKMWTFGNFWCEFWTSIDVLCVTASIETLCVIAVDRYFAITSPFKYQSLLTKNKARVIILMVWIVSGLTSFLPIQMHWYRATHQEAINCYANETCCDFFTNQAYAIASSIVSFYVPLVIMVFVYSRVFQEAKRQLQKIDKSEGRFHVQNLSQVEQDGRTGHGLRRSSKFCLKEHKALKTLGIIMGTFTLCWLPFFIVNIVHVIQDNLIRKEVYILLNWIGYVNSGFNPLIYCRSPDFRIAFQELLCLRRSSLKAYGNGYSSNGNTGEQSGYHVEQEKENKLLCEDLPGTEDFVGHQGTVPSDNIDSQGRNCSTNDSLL
# LANA-H2B inh: blocks KSHV LANA binding to histone H2A/H2B | Q9QR71 | cell-free LANA-H2A/H2B peptide, fluorescence polarization | inhibition, % (test concentration not listed) | 320,000 tested, 0.6% active | AID 2629; in the data active = inhibition mostly above about 10%, no sharp cut-off; inactive = mostly below about 6.7%;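 note: stock transfer was 7.5 nL into about 10 µL; 0% = median of vehicle wells and 100% = median of positive control wells; one replicate is shown; the record names a cut of 25% in any replicate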
# Ecoli growth: blocks Escherichia coli growth. OD600, 23 h; stronger effect = lower value. OD600 absorbance (no concentration beside the values). 330,000 tested, 0.21% active;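 active = OD600 absorbance below the run mean of sample wells minus 3.6 SD, in any replicate, cut at about 0.56 in these data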;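 note: stock transfer was 300 nL into about 60 µL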
# Vif TR-FRET: HIV-1 Vif–A3G interaction blockers – biochemical, TR-FRET, GST-Vif 1-94, biotin-A3G peptide, dose response retest, primary screen (AID 1117319); TR-FRET GST-Vif / biotin-A3G peptide binding; higher % means a stronger effect; test concentration not given here; strong numbers were not always called active; inhibition, %, or IC50 in µM where a hit was titrated; 260,000 tested, 0.57% active;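 active = above the screen mean plus three standard deviations and confirmed in dose response; inconclusive = results disagree or hit not tested in dose response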;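 note: Vif residues 1-94 fused to GST binding biotinylated APOBEC3G peptide 110-148; 0% = full assay without inhibitor and 100% = GST in place of GST-Vif; retest series ran down from 100 µM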
# A1 inh: inhibitors of the anti-apoptotic protein A1, read as caspase activation; caspase activation, % (no concentration beside the values); MEF A1-2A-BIM cells, Caspase-Glo 3/7 luminescence, 3 h; percent of clofoctol response, vehicle zero; 330,000 tested, 0.066% active; AID 2462;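 active = over half of replicate activation scores above 10%, or exactly half above 10 with the replicate mean above 10; inconclusive = replicate mean below 10 yet half the replicates above 10; inactive = over half of replicates below 10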;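 note: wells of about 30 µL received 50 nL stock; many hits fall short of the cut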
# HNF4A DNA FP: change in binding of human HNF4 alpha to DNA. activity change, % at 10 µM. 360,000 tested, 0.3% active. P41235. HNF4a-FITC DNA binding, fluorescence polarization, 1 h; in the data active = activity change above about 30%, passing the limit was not always enough;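 note: controls were the assay level and a saturating level of protein; the project sought stronger binding though the title names inhibitors; some compounds called inactive have numbers as strong as hits; positive values seem to mean higher polarization but the record does not say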
# UCH37 inh: human UCH37 deubiquitinating enzyme inhibition | Q9Y5K5 | 330,000 tested, 0.33% active | purified proteasome/UCH37, Ub-AMC cleavage fluorescence | inhibition, % (concentration not given with the values);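 active = mean of two replicates above 20%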;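 note: 0% = compound-free wells with enzyme and 100% = wells lacking proteasome; stock transfer was 100 nL into about 20 µL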
# Target sequence (Q9Y5K5 whole entry, looked up): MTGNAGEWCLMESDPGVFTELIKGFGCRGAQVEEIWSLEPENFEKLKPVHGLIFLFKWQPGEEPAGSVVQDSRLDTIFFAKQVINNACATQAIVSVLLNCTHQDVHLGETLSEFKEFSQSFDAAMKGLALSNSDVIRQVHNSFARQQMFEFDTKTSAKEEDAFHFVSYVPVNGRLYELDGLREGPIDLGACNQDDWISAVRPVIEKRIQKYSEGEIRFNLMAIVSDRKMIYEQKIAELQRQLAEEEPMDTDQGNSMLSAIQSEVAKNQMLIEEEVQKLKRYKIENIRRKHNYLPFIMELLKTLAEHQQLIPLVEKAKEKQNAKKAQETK
#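 Material: Human UCH37 enzyme supplied as purified proteasome complex | Schedule: 30 min compound-proteasome preincubation then 25 min substrate reaction, room temperature | Detection: AMC fluorescence from Ub-AMC cleavage, excitation 355 nm, emission 460 nm | Benchmarks: Wells without proteasome as full block, compound-free enzyme plus substrate as uninhibited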
# An asterisk follows results filed as active; ? = inconclusive; / = not tested or not shown.
SMILES,Beta2AR agonist,LANA-H2B inh,Ecoli growth,Vif TR-FRET,A1 inh,HNF4A DNA FP,UCH37 inh
O=C(CSc1ccc(-c2ccc(F)cc2)nn1)N1CCOCC1,-18.1,0.3,0.697,-2.0%,-6.2,-4.1,-0.9
O=C(O)c1cc(N/N=C/c2ccc(N3CCOCC3)s2)ccc1Cl,1.0,/,/,?,-3.2,4.7,/
N#Cc1cccc(NC(=O)CSc2cccc[n+]2[O-])c1,-0.8,-3.7,0.705,-5.6%,-0.2,2.9,1.6
Cc1[nH]nc2nc(SCC(=O)NCCC3=CCCCC3)n(-c3ccc(Br)cc3)c(=N)c12,16.4,2.3,0.724,/,3.4,0.7,-11.5
N#CC1(c2ccc(NC(=O)c3ccccc3F)cc2)CCCC1,24.9,3.4,0.695,65.5%,-6.1,1.1,-2.9
CCCCn1c(CNC(=O)C23CC4CC(CC(C4)C2)C3)nnc1SC(C)CC (stereo unspecified),-6.4,3.8,0.647,/,-0.3,-4.0,1.7
CCN(CC(=O)Nc1ccc(NC(C)=O)cc1)C(=O)CCCOc1ccc(C(C)(C)C)cc1,0.7,0.6,0.69,0.9%,0.0,-0.7,1.6
Cc1ccc(NC(=O)CCC(=O)NNC(=O)c2cccs2)c(C)c1,-1.5,3.1,0.656,1.9%,0.7,0.8,-1.3
COc1ccccc1CNCC(=O)Nc1ccc(C(F)(F)F)cc1,-3.7,-7.7,0.664,-1.5%,0.2,-0.1,2.5
CCS(=O)(=O)N1Cc2ccccc2CC1C(=O)Nc1nc(C)cs1 (stereo unspecified),-1.8,3.5,0.675,/,0.5,2.2,3.0
CSc1ccc(CN(C)C(=O)C(c2ccccc2)c2ccccc2)cc1,13.7,-1.5,0.656,-15.1%,0.3,-3.5,-1.2
Cn1c(N2CCOCC2)c(/C=N/OC(=O)c2cccnc2Cl)c2ccccc21,2.9,/,/,-9.1%,/,0.7,/
Cc1cccc(C(C(=O)NC2CCCC2)N(C(=O)c2csnn2)C2CC2)c1 (stereo unspecified),1.4,2.3,0.69,/,1.5,1.2,-0.1
Cc1noc(NS(=O)(=O)c2ccc(NS(=O)(=O)c3ccc(Cl)cc3)cc2)c1C,-0.4,0.1,0.684,0.6%,0.2,4.0,5.5
O=C(NCC1COCCO1)c1cc(COc2ccc(F)cc2F)on1 (stereo unspecified),5.2,2.5,0.71,?,0.6,4.3,2.4
Cc1c(C)n(C(=O)CN2CCC(C)CC2)c2ccccc12,-2.4,-0.9,0.752,1.8%,0.7,-1.5,3.4
CCC(C)c1ccccc1NC(=O)Cc1coc2cc3c(cc12)CCC3 (stereo unspecified),-2.9,/,0.667,-1.0%,-0.1,1.4,1.7
C=CCSc1nc2ccccc2c(=O)n1C1CCOC(C)(C)C1 (stereo unspecified),-5.1,4.7,0.647,0.0%,0.6,-4.2,3.9
CC(C)(C)c1ccc(S(=O)(=O)N2CCC(CO)(CC3CCCCO3)CC2)cc1 (stereo unspecified),-5.0,-3.2,0.68,11.1%,0.0,2.8,1.0
Cc1cc(C)nc(Nc2n[nH]c(-c3ccccc3N)n2)n1,-11.3,4.6,0.706,/,-2.1,2.7,-1.8
COc1ccc(C2C3=C(CC(C)(C)CC3=O)Oc3ncn(Cc4ccco4)c(=N)c32)cc1 (stereo unspecified),-746.2,-4.0,0.679,25.3%,-0.2,-1.4,2.2
CC(C)C(=O)N1CCN(S(=O)(=O)c2ccc3ccccc3c2)CC1,-11.5,-4.0,0.675,/,1.0,-0.2,2.1
O=C(O)c1ccc(-c2ccc(/C=C3\NC(=O)N(Cc4ccc(Cl)cc4)C3=O)o2)cc1,19.6,/,0.642,18.4%,/,-15.2,-14.8
COc1cccc(NC(=O)c2cc(-c3ccc(C)o3)nc3ccccc23)c1,5.5,-5.3,0.707,17.3%,0.4,-4.5,-113.4
CCCCOC(=O)C1CN(c2ccccc2)N=C1C(C)=O (stereo unspecified),2.8,1.6,0.629,/,0.3,1.0,-79.1
# Following part
SMILES,Beta2AR agonist,LANA-H2B inh,Ecoli growth,Vif TR-FRET,A1 inh,HNF4A DNA FP,UCH37 inh
COCCn1nnnc1C(C(C)C)N1CCSCC1 (stereo unspecified),-9.6,3.1,0.643,?,-0.5,2.1,2.1
O=C(NCc1ccc(F)cc1)C1CCCN1C(=O)Nc1cccc(F)c1 (stereo unspecified),-7.2,-0.5,0.687,-0.6%,0.4,3.0,2.8
Cn1c(=O)[nH]c(=O)c2c1nc(CN1CCOCC1)n2CCc1ccccc1,-2.8,-1.6,0.694,10.3%,1.0,-0.1,0.2
O=C(CN1CCOCC1)Nc1cccc(Br)c1,-7.8,5.4,0.709,-2.6%,0.1,3.5,0.3
CC(OC(=O)c1cc(=O)c2ccccc2o1)C(=O)Nc1ccc(N(C)C)cc1 (stereo unspecified),-1.2,/,0.654,/,/,-1.3,2.5
Cc1cc(C)n2nc(-c3cnn(C)c3C(F)(F)F)c(Cl)c2n1,-20.4,1.5,0.711,?,0.2,0.4,-2.2
CC(C)C(NC(=O)c1ccc(Cl)cc1Cl)C(=O)NCCc1ccccn1 (stereo unspecified),-5.5,/,0.717,-8.0%,/,6.8,3.2
Cc1cccc(C(=O)N[C@H](C(=O)NCc2cccs2)C(C)C)c1,1.1,0.7,0.701,/,0.9,1.4,3.5
CCCCn1c(SCC(=O)NC2CCS(=O)(=O)C2)nc2ccccc2c1=O (stereo unspecified),-4.5,-2.5,0.72,2.2%,0.2,2.7,2.4
N#CC(C#N)=c1ccc2c(c1)N1C(c3ccccc3)=CC(c3ccccc3)C3CCCCC31N=2 (stereo unspecified),12.0,0.3,0.747,?,-0.1,24.5,4.8

# A draw from above in order of heavy-atom count, lowest first.
SMILES,Beta2AR agonist,LANA-H2B inh,Ecoli growth,Vif TR-FRET,A1 inh,HNF4A DNA FP,UCH37 inh
O=C(CN1CCOCC1)Nc1cccc(Br)c1,-7.8,5.4,0.709,-2.6%,0.1,3.5,0.3
COCCn1nnnc1C(C(C)C)N1CCSCC1 (stereo unspecified),-9.6,3.1,0.643,?,-0.5,2.1,2.1
N#Cc1cccc(NC(=O)CSc2cccc[n+]2[O-])c1,-0.8,-3.7,0.705,-5.6%,-0.2,2.9,1.6
CCCCOC(=O)C1CN(c2ccccc2)N=C1C(C)=O (stereo unspecified),2.8,1.6,0.629,/,0.3,1.0,-79.1
O=C(CSc1ccc(-c2ccc(F)cc2)nn1)N1CCOCC1,-18.1,0.3,0.697,-2.0%,-6.2,-4.1,-0.9
Cc1ccc(NC(=O)CCC(=O)NNC(=O)c2cccs2)c(C)c1,-1.5,3.1,0.656,1.9%,0.7,0.8,-1.3
O=C(NCC1COCCO1)c1cc(COc2ccc(F)cc2F)on1 (stereo unspecified),5.2,2.5,0.71,?,0.6,4.3,2.4
O=C(NCc1ccc(F)cc1)C1CCCN1C(=O)Nc1cccc(F)c1 (stereo unspecified),-7.2,-0.5,0.687,-0.6%,0.4,3.0,2.8
CCCCn1c(SCC(=O)NC2CCS(=O)(=O)C2)nc2ccccc2c1=O (stereo unspecified),-4.5,-2.5,0.72,2.2%,0.2,2.7,2.4
CCCCn1c(CNC(=O)C23CC4CC(CC(C4)C2)C3)nnc1SC(C)CC (stereo unspecified),-6.4,3.8,0.647,/,-0.3,-4.0,1.7
Cc1[nH]nc2nc(SCC(=O)NCCC3=CCCCC3)n(-c3ccc(Br)cc3)c(=N)c12,16.4,2.3,0.724,/,3.4,0.7,-11.5
COc1ccc(C2C3=C(CC(C)(C)CC3=O)Oc3ncn(Cc4ccco4)c(=N)c32)cc1 (stereo unspecified),-746.2,-4.0,0.679,25.3%,-0.2,-1.4,2.2
CCN(CC(=O)Nc1ccc(NC(C)=O)cc1)C(=O)CCCOc1ccc(C(C)(C)C)cc1,0.7,0.6,0.69,0.9%,0.0,-0.7,1.6
N#CC(C#N)=c1ccc2c(c1)N1C(c3ccccc3)=CC(c3ccccc3)C3CCCCC31N=2 (stereo unspecified),12.0,0.3,0.747,?,-0.1,24.5,4.8
